From PubChem
eIF4H FP inh = human eIF4H binding inhibitors, primary screen, translation initiation inhibitor project, biochemical, uHTS, fluorescence polarization; inhibition, % at 35 µM; AID 2012, 2009; eIF4H fluorescence polarization binding assay; Eukaryotic translation initiation factor 4H (Homo sapiens), Q15056; 290,000 tested, 0.94% active;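 active = 50% or more with normal probe brightness, or confirmed in later tests; inconclusive = above 50% with abnormal brightness, or retests that disagree; inactive = below 50% or failed in later tests; about a fifth of its hits are not listed in these tables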;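 also: calls also rest on retests at 20 µM and on dose response follow-up; 0% = protein and probe with vehicle and 100% = probe without protein; strong numbers were not always called active; many hits fall short of the cut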
Env fusion inh = inhibitors of HIV-1 Env-driven cell-cell fusion, primary screen, HeLa-JRFL effector, CEM21 target cells, luciferase; inhibition, % at 12.3 µM; 360,000 tested, 1.1% active; AID 651610, 2012;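 active = mean replicate inhibition score of at least 50 and every replicate individually at or above 50; inconclusive = only one of the two criteria met; inactive = mean below 50 and not all replicates reaching 50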;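 also: 0% = plate neutral controls and 100% = maraviroc near 300 nM; one replicate is shown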
UUG fidelity = modulators of yeast start codon fidelity, primary screen, whole organism, S. cerevisiae, single point, plate reader. S. cerevisiae UUG-firefly luciferase reporter, luminescence/redox ratio. activity score, % at 18.7 µM. 350,000 tested, 0.13% active;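 active = replicate mean at a twofold rise or more, about +100% in these data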;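 also: firefly luciferase made from a UUG start codon reports start codon fidelity; reporter light over untreated wells divided by growth signal over untreated wells; some hits fall short of that in this replicate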
MT1-MMP act inh = blockers of MT1-MMP proenzyme processing, primary screen, HT1080 RFP-PRO-GFP cells, GFP/RFP fluorescence. Matrix metalloproteinase-14 (Homo sapiens), P50281. GFP/RFP ratio fluorescence, overnight; percent of plate control window, DMSO zero. GFP/RFP ratio change, % at 20 µM. 360,000 tested, 0.061% active;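 active = GFP/RFP ratio change of at least 30% with cell ATP level not reduced by more than half and red fluorescence within 50% of control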; also: strong numbers were not always called active
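Test system: HT1080 cells expressing an RFP-PRO-GFP fluorescent reporter construct / Compound dosing: single-point 20 µM compound, 1% DMSO / Schedule: cells overnight before dosing, compound overnight, 37 °C, 5% CO2 / Evaluation: GFP/RFP fluorescence ratio / Control set: DMSO and RFP-L50D-GFP cell wells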
Rce1 inh = yeast Rce1p protease inhibitors, primary screen, biochemical, fluorescence, cell-free homogeneous | yeast membranes, quenched prenylated peptide cleavage fluorescence | calls only | 290,000 tested, 0.27% active;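 active = fall in fluorescence gain of 50% or more versus controls, with final raw signal at or below 3038400; inconclusive = same 50% fall but final raw signal above 3038400; inactive = fall in fluorescence gain under 50%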;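 also: plate controls were neutral control wells for no effect and wells lacking membranes for full effect; tested at 10 µM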
Target sequence (Q03530 whole entry, looked up): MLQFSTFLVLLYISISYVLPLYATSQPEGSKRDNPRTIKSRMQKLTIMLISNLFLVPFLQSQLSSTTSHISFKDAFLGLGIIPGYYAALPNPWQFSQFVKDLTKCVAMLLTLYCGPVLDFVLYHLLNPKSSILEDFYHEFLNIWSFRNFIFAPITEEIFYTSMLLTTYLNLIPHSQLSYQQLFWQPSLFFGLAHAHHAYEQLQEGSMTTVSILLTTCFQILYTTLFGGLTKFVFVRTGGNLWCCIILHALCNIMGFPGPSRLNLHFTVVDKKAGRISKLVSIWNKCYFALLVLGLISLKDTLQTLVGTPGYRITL
PABP FP inh = PABP poly(A) RNA binding inhibitors, primary screen, biochemical, fluorescence polarization, uHTS | inhibition, % at 35 µM | 290,000 tested, 1% active | AID 2014, 2009;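 active = 50% or more with normal probe brightness, or confirmed in later tests; inconclusive = above 50% with abnormal brightness, or retests that disagree; inactive = below 50% or failed in later tests; about a fifth of its hits are not listed in these tables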;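 also: calls also rest on retests at 20 µM and on dose response follow-up; controls were probe without protein and protein plus probe with vehicle; some compounds called inactive have numbers as strong as hits; many hits fall short of the cut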
Target sequence (P11940 whole entry, looked up): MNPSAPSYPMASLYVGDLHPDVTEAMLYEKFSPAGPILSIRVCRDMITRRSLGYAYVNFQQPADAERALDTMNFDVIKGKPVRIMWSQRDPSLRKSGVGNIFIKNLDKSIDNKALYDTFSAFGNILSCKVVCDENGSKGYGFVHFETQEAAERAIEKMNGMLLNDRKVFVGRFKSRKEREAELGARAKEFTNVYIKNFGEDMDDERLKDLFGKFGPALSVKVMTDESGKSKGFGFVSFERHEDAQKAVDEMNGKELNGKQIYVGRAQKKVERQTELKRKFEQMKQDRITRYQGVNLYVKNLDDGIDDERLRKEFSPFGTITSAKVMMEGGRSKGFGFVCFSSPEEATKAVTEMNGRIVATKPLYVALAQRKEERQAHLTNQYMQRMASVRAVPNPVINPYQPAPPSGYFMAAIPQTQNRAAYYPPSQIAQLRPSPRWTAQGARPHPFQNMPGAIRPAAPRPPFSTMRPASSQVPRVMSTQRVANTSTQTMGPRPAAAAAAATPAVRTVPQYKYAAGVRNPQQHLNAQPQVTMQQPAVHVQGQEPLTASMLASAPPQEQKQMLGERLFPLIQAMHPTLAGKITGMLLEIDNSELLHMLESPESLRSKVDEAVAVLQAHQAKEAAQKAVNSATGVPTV
CSC inhib = cancer stem cell viability inhibitors, primary screen, luminescence; cancer stem cell-like cells viability; inhibition, % at 7.5 µM; 300,000 tested, 1.1% active;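 active = mean at 75% or more and at least half the replicates too; inconclusive = mean and replicates disagree; tested in HMLE shEcad cells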;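 also: 0% = median of negative and 100% = median of positive control wells; the first replicate is given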
MT1-MMP act inh RFP = also measured in MT1-MMP act inh; calls as there; RFP signal change, %; measured here: RFP expression control read;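 0 = vehicle wells; hits needed this value within 50% of zero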
Active calls of the source: *; i = inactive; ? = inconclusive; / = no result given; + = active, no number; & = joins results of further samples.

SMILES	eIF4H FP inh	Env fusion inh	UUG fidelity	MT1-MMP act inh	MT1-MMP act inh RFP	Rce1 inh	PABP FP inh	CSC inhib
C=CCOc1c(Br)cc(CNCCCN2CCOCC2)cc1OC	-12	9	-3	6	0	i	6	-11
CC(=O)Cc1nsc(NC(=O)c2csc3c2CCCC3)n1	3	-105	-14	-11	-5	i	-5	9
CC(=O)Nc1cc2c(cc1Br)-c1ccccc1C2	/	-132	-21	-2	-3	/	/	/
CCc1nnc(NC(=O)Cc2ccc(OC)cc2)s1	-18	15	-19	4	5	i	-2	-13
CO/N=C/CC(=O)Nc1ccc(F)cc1F	-4	/	-6	0	-1	i	4	-3
CC1CC(=O)NN1C(=O)c1ccccc1 (stereo not given)	0	-6	/	3	6	i	-7	-5
Cc1cc(C)nc(NC(=O)NS(=O)(=O)N2CCCCCC2)n1	-6	/	-47	-1	2	i	-10	-8
O=C(c1ccc(CN2CCOCC2)cc1)N1CCN(c2ccccc2)CC1	-3	/	-18	6	4	i	9	36
Cc1ccc(S(=O)(=O)c2nc(S(=O)(=O)c3ccc(C)cc3)c(NCc3ccco3)s2)cc1	-5	/	/	1	-1	i	2	-4
Cc1ccc(S(=O)(=O)N(C)C)cc1NC(=O)COC(=O)c1c(C)noc1C	-8	13	/	0	2	i	-10	7
COCCCNC(=S)N1CCN(S(C)(=O)=O)CC1	-4	24	/	0	1	i	0	/
Cc1cc(Cl)c(S(=O)(=O)N2CCN(c3cccc(C)c3C)CC2)cc1OCC(N)=O	-10	-77	-12	2	-6	/	-8	29
CCN(C(=O)Cn1cnc2cc([N+](=O)[O-])ccc2c1=O)C1CCS(=O)(=O)C1 (stereo not given)	14	12	0	-5	-3	i	-2	0
Cc1ccnc(NS(=O)(=O)c2ccc(NC(=O)c3cc(=O)c4ccccc4o3)cc2)n1	-2	-1	-7	-3	5	i	-3	8
CC(=O)Nc1ccc(NCc2ccc(-c3ccccc3)cc2)cc1	/	-4	-4	10	3	/	/	/
CCOCC(O)CS(=O)(=O)c1ccccn1 (stereo not given)	-7	-41	-15	1	2	i	-7	-6
CCC1CCCCN1C(=O)CSc1nnc2nc(C)cc(C)n12 (stereo not given)	/	/	0	0	2	/	/	-12
O=S(=O)(c1ccc(F)cc1)N1CCN(c2ccc(F)cc2)CC1	-4	-1	5	-1	-2	i	-4	3
COc1ccc(C(=O)/C=C/Nc2c(C)n(C)n(-c3ccccc3)c2=O)cc1OC	-1	/	-2	1	1	i	11	-7
O=C(O)/C(=C\c1cn(-c2ccccc2)nc1-c1ccc(Cl)cc1)NC(=O)c1ccccc1	3	2	-16	-10	-13	i	4	10
O=C(c1ccco1)N1CCn2c1nc1ccccc12	0	/	4	2	4	i	2	0
N#C/C(=C\c1cn(-c2ccccc2)nc1-c1ccccc1)S(=O)(=O)c1ccccc1	1	-39	-20	0	1	i	4	-2
c1ccc(-c2cnc(SCCN3CCOCC3)n2CC2CCCO2)cc1 (stereo not given)	9	/	-18	0	-2	/	-6	7
O=C(NCc1ccccc1)c1cc(-c2ccncc2)nc2ccc(S(=O)(=O)N3CCOCC3)cc12	-21	/	/	-4	-3	i	2	-7
COc1cc(NS(=O)(=O)c2cccc3nsnc23)cc(OC)c1	10	/	29	5	-3	i	2	-9

Exported with bars between the fields: entries from further up.
Structure | eIF4H FP inh | Env fusion inh | UUG fidelity | MT1-MMP act inh | MT1-MMP act inh RFP | Rce1 inh | PABP FP inh | CSC inhib
CCN(C(=O)Cn1cnc2cc([N+](=O)[O-])ccc2c1=O)C1CCS(=O)(=O)C1 (stereo not given) | 14 | 12 | 0 | -5 | -3 | i | -2 | 0
c1ccc(-c2cnc(SCCN3CCOCC3)n2CC2CCCO2)cc1 (stereo not given) | 9 | / | -18 | 0 | -2 | / | -6 | 7
CCC1CCCCN1C(=O)CSc1nnc2nc(C)cc(C)n12 (stereo not given) | / | / | 0 | 0 | 2 | / | / | -12
Cc1ccc(S(=O)(=O)N(C)C)cc1NC(=O)COC(=O)c1c(C)noc1C | -8 | 13 | / | 0 | 2 | i | -10 | 7
Cc1ccc(S(=O)(=O)c2nc(S(=O)(=O)c3ccc(C)cc3)c(NCc3ccco3)s2)cc1 | -5 | / | / | 1 | -1 | i | 2 | -4
CC1CC(=O)NN1C(=O)c1ccccc1 (stereo not given) | 0 | -6 | / | 3 | 6 | i | -7 | -5

Molecules shown so far that contain bromine:
SMILES	eIF4H FP inh	Env fusion inh	UUG fidelity	MT1-MMP act inh	MT1-MMP act inh RFP	Rce1 inh	PABP FP inh	CSC inhib
C=CCOc1c(Br)cc(CNCCCN2CCOCC2)cc1OC	-12	9	-3	6	0	i	6	-11
CC(=O)Nc1cc2c(cc1Br)-c1ccccc1C2	/	-132	-21	-2	-3	/	/	/

More structures follow.
SMILES	eIF4H FP inh	Env fusion inh	UUG fidelity	MT1-MMP act inh	MT1-MMP act inh RFP	Rce1 inh	PABP FP inh	CSC inhib
Cc1ccc2nc(-c3cccc(N)c3)[nH]c2c1	3	-164	-34	14	4	i	-5	-12
CC(=O)c1cccc(N/C=C\C(=O)c2ccc(C)cc2)c1	-11	-147	-24	2	5	i	?	-1
O=C(Nc1ccc(Cl)cc1)Nc1ccccc1C(=O)NCc1ccco1	-5	-6	-15	-7	-17	i	10	/
FC(F)(F)c1ccc(NCc2ccccn2)nc1	-5	-16	-10	5	-1	i	-17	4
CON(C)C(=O)/C=C/c1ccc([B-](F)(F)F)cc1	/	28	-2	5	6	/	/	/
O=C(CSc1nnc(-c2ccco2)n1-c1ccccc1)NCCc1ccccc1	-4	/	-23	5	1	i	3	-26
Nc1c(C(=O)NCc2ccccc2)sc2nc(N3CCOCC3)c3c(c12)CCCC3	9	-46	-9	1	2	+	2	-4
COc1ccc(N2C(N)=C(C#N)C(c3cccnc3)C3=C2CC(C)(C)CC3=O)cc1 (stereo not given)	11	/	0	-2	3	i	6	0
CCN1C(=O)[C@H]2[C@@H](c3ccc(-c4ccc(Cl)c(Cl)c4)cc3)N[C@@](CC(C)C)(C(=O)OC)[C@H]2C1=O	/	34	-6	-1	-1	i	/	16
CCOc1ccc(N(CC(=O)Nc2ccc(C)c(F)c2)C2=NC3CS(=O)(=O)CC3S2)cc1 (stereo not given)	-6	2	-12	1	7	i	-1	4
O=C(O)c1ccc(S(=O)(=O)/N=C2\C=C(Nc3ccccc3F)C(=O)c3ccccc32)cc1	-1	-3	-37	10	-16	i	9	104*
CCOC(=O)N1CCN(C(=O)c2ccc3c(c2)sc2nc(-c4ccc(OC)cc4)cn23)CC1	-8	/	-6	3	-4	i	2	-11
C#CCOc1ccc2ccccc2c1/C=C(/C#N)c1ccc(C(=O)O)cc1	-8	16	-6	-3	-1	i	6	65
CCN(CC)c1nc(N)c2c(N)nc3c(c2c1C#N)CC(c1ccccc1)O3 (stereo not given)	-4	-128	4	-7	3	i	2	3
CC(C)C1Oc2ccccc2C(=O)N(CC(=O)c2ccc3c(c2)OCCO3)C1=O (stereo not given)	/	-38	-15	-1	0	i	/	-13
Cn1ncc(Cl)c1C(=O)NCc1cc(C(C)(C)C)n[nH]1	2	-103	/	11	-3	i	-4	-7
CCCn1c(=N)n(CCOc2ccc(OC)cc2)c2ccccc21	5	/	-5	-3	-9	i	5	-11
O=S(=O)(O)c1nc2ccccc2n1CCOc1ccccc1	-8	/	-11	11	3	i	4	-7
CSc1nc2[nH]c(=O)[nH]c2c(=O)[nH]1	/	2	-13	2	5	/	/	/
COc1cc(CC(=O)Nc2ccc3c(c2)CCC3)cc(OC)c1OC	-1	30	5	-3	-16	i	-7	4
CN(c1ccc(C(=O)NCc2ccccn2)cc1)S(C)(=O)=O	-16	-2	-5	5	5	i	-2	-6
CC(C)C(=O)n1nc(-c2cccnc2)nc1NCc1cccs1	3	-26	-9	1	0	i	-1	-13
Cc1cc(NS(=O)(=O)c2ccc(NC(=O)CCN3C(=O)c4ccccc4C3=O)cc2)no1	-2	/	-3	7	-1	i	9	8
COC(=O)c1ccc(C(=O)OC)c(NC(=O)CCc2ccc(C)o2)c1	-10	-4	-8	-2	5	i	2	-2
CCC1OC2(C)OC(=N)C1(C#N)C(C#N)(C#N)C2c1ccccc1 (stereo not given)	?	6	/	2	19	i	-9	4
Later entries.
SMILES	eIF4H FP inh	Env fusion inh	UUG fidelity	MT1-MMP act inh	MT1-MMP act inh RFP	Rce1 inh	PABP FP inh	CSC inhib
CCN(CC)S(=O)(=O)c1ccc(OC)c(NC(=O)c2ccc(OC)c([N+](=O)[O-])c2)c1	/	/	3	1	-11	i	/	0
Cc1ccc(C(=O)COC(=O)c2cccc(N3C(=O)c4c(C)nc5ccccc5c4C3=O)c2)cc1C	-9	8	-18&1	1	4	i	-9	0
NC(=O)COC(=O)CNC(=O)c1sc2ccccc2c1Cl	-5	-3	4	1	4	i	-8	-4
COc1cc2c(cc1OC)-c1cc(OCCN3CCOCC3)nc(=O)n1CC2	-8	16	-6	-15	2	?	3	5
COc1ccc(CNC(=O)C2CC(c3ccccc3[N+](=O)[O-])=NO2)cc1 (stereo not given)	-8	-10	18	-8	-1	i	-2	6
O=C(CSc1ccccc1)NN1C(=O)c2ccccc2C1=O	-2	9	/	5	3	i	-6	-21
COc1ccc(-c2nc(CS(=O)CC(=O)NCC3CCCO3)c(C)o2)cc1 (stereo not given)	0	19	-9	9	0	i	3	-15
COc1ccc(NC(=O)C2CCCN(S(=O)(=O)c3ccc4[nH]c(=O)ccc4c3)C2)cc1OC (stereo not given)	7	-3	-7	-4	-3	i	0	1
O=C(NCCCNC(=O)c1c(F)cccc1F)c1c(F)cccc1F	7	12	-31	-3	3	i	5	/
COc1cc(/C=N/NC(=O)C2=NNC(=O)C2C)ccc1O (stereo not given)	2	-2	/	6	3	i	-2	5
COc1cccc(NC(=O)Cc2nc(-c3ccccc3)sc2-c2ccc(C)cc2)c1	-10	-10	0	-8	-5	/	-7	3
O=C(Nc1cccc(F)c1)c1cc(S(=O)(=O)N2CCC(C(=O)O)CC2)ccc1F	-8	77*	0	5	1	i	-7	-4
O=C(Nc1ccccc1C(=O)NC(Cc1ccccc1)C(=O)NC1CCCCC1)c1ccccc1 (stereo not given)	6	66*	/	-14	-11	i	-11	-8
Cc1ccc(OCc2cc(C(=O)NCCn3cccn3)no2)cc1C	-21	-2	-11	1	3	i	3	5

Rce1 inh, what is marked active above
structure	Env fusion inh	UUG fidelity	MT1-MMP act inh	MT1-MMP act inh RFP	Rce1 inh
Nc1c(C(=O)NCc2ccccc2)sc2nc(N3CCOCC3)c3c(c12)CCCC3	-46	-9	1	2	+

Compound profiles, from the list above. Order of screens: eIF4H FP inh | Env fusion inh | UUG fidelity | MT1-MMP act inh | MT1-MMP act inh RFP | Rce1 inh | PABP FP inh | CSC inhib
Listed for COc1ccc(-c2nc(CS(=O)CC(=O)NCC3CCCO3)c(C)o2)cc1 (stereo not given) → 0 | 19 | -9 | 9 | 0 | i | 3 | -15
Listed for COc1ccc(NC(=O)C2CCCN(S(=O)(=O)c3ccc4[nH]c(=O)ccc4c3)C2)cc1OC (stereo not given) → 7 | -3 | -7 | -4 | -3 | i | 0 | 1
